Screening data from PubChem.
D2 agonist: activates the human D2 dopamine receptor; DiscoveRx PathHunter D2 beta-arrestin, luminescence, 90 min; 100% = 57 uM dopamine signal; activation, % (concentration not given with the values); 360,000 compounds, 0.084% hits; AID 624465; in the data active = activation above about 40%; inconclusive = about 15% to 40%; inactive = below about 15%; note: the text of the record calls up to 30% inactive
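DiscoveRx PathHunter D2 beta-arrestin cells (2,100/well) attached overnight, then compound-stimulated 90 min at 37 C in HBSS/10 mM HEPES/0.1% Tween-20 buffer; beta-galactosidase complementation read by luminescence after 1 h at ambient temperature. Dopamine 57 uM final (EC100) as control.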
D2 PAM: positive allosteric modulators of human D2 dopamine receptor | P14416 | DiscoveRx D2 beta-arrestin cells, luminescence, 90 min; 100% = 57 uM dopamine signal | potentiation, % (concentration not given with the values) | 360,000 compounds, 0.23% hits | AID 624464; active = potentiation of 50% or more; inconclusive = 30% to 50%; inactive = 30% or less;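 note: tested on top of an EC20 dose of dopamine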
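D2 cells co-treated with compound plus 50 nM dopamine (EC20) for 90 min at 37 deg C to detect potentiation. Beta-arrestin recruitment was read as enzyme-fragment luminescence after 1 h at ambient temperature. Full response was set by 57 uM dopamine.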
CtBP-E1A blk: inhibitors of CtBP/E1A interaction; AlphaScreen GST-E1A/His-CtBP binding, 1536-well; active compounds read low; control for the full effect not named in the record; AID 651724; activity change, % (concentration not given with the values); 340,000 compounds, 0.49% hits; in the data active means activity change below about -65%; inconclusive means about -30% to -65%; inactive means above about -30%; note: % is set by controls: 0 for no effect and ±100 for the full control effect
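AlphaScreen with 125 nM GST-E1A and 125 nM His-CtBP (5X stocks) in Tris pH 8.0, 300 mM NaCl, BSA, Tween 20, TCEP. Compounds preincubated 2 h at 37 deg C, then glutathione donor/nickel acceptor beads added for 1 h at 37 deg C in dark.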
Six1-Eya2 blk: blocks human Six1 binding to Eya2; Q15475+O00167; AlphaScreen GST-Six1/His-Eya2 binding, biochemical; active compounds read low; control for the full effect not named in the record; activity change, % (concentration not given with the values); 360,000 compounds, 0.56% hits; AID 651725; in the data active = activity change below about -65%; inconclusive = about -30% to -65%; inactive = above about -30%; note: % is set by controls: 0 for no effect and ±100 for the full control effect
Target sequence (O00167 whole entry, looked up): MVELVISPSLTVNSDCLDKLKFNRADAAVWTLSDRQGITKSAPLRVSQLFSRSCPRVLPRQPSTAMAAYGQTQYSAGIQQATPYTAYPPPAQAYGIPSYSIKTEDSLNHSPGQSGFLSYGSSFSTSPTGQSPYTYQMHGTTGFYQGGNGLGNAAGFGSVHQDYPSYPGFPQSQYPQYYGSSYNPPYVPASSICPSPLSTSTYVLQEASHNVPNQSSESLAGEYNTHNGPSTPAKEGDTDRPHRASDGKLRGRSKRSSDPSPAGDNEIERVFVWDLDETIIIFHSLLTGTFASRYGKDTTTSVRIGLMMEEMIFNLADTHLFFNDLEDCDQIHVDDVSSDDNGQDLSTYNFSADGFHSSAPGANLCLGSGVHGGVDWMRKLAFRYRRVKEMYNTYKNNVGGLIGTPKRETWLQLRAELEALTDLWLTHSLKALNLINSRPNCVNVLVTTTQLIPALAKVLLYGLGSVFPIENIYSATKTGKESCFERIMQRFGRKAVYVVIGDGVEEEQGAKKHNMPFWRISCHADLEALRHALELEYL
Target sequence (Q15475 whole entry, looked up): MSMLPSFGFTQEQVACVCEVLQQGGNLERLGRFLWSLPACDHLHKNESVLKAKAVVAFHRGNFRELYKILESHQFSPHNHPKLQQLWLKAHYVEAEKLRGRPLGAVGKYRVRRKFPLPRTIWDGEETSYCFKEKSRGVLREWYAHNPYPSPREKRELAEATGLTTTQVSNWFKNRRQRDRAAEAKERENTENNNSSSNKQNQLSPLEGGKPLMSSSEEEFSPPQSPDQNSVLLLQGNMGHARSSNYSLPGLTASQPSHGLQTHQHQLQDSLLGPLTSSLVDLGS
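GST-Six1 + His-Eya2 (5X stock: 250/500 nM); Tris pH 8.0, 300 mM NaCl, 0.05% BSA, 0.02% Tween 20; GSH donor/Ni acceptor beads; 1 h 37 °C dark; AlphaScreen readout.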
gsp ag: gsp mutant agonism. Potency, µM (highest dose often 76.9 µM), without a hit: top-dose activation (cAMP increase), hits mostly activators. gsp mutant cells, cAMP HTRF, 30 min; control for the full effect not named in the record. AID 624287. 340,000 compounds, 0.13% hits; active = well fitted activation curve with a large enough effect; inconclusive = small, poorly fitted or top-dose-only effect, or another doubt; inactive = no such curve, though single readings can be large or run the other way; cell line not stated here;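 note: phosphodiesterase inhibitor Ro 20-1724 added with compounds to block cAMP breakdown; potency is the fitted concentration of half-maximal effect; nearly all actives have a fitted effect of over 60% in size; about a fifth of the inactives were tested at one dose only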
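Cells in DMEM/10% FBS with G418 were pretreated with compounds in DMSO plus […] (300 uM stock) for 30 min at 37C. cAMP was measured by HTRF (cAMP-d2 plus anti-cAMP antibody-K) after 30 min at room temperature.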
gsp antag: antagonizes gsp, the McCune-Albright syndrome mutation. 340,000 compounds, 0.4% hits. Potency, µM (doses to about 76.9 µM), for inactives: top-dose activity change, negative = inhibition, most hits filed as inhibitors. gsp-mutant cells, cAMP HTRF, 30 min; control for the full effect not named in the record; active = falling curve of any shape with a large fitted effect; inconclusive = falling curve, mostly with a smaller effect; inactive = flat or rising curve; cell line not stated here;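 note: intracellular cAMP measured with PDE inhibitor Ro 20-1724 present during compound exposure; potency is the fitted concentration of half-maximal effect; % is set by controls: 0 for no effect and ±100 for the full control effect; nearly all actives have a fitted effect of over 65% in size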
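Cells in G418 medium, seeded 16-24 h, 37C; buffer exchange to DPBS + 1 mM CaCl2, 0.5 mM MgCl2, 0.05% BSA; cpds in DMSO + […] (300 uM stock), 30 min 37C; HTRF cAMP detection.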
Numbers without * were called inactive; ? = inconclusive; . = not tested or not shown; [ ] = remark or other dose. Hits appear at their usual frequency; overall some 1.4% were active at least once.

Results follow in this order: D2 agonist | D2 PAM | CtBP-E1A blk | Six1-Eya2 blk | gsp ag | gsp antag
1. COc1ccc(C(=O)NC(=S)N(C)Cc2ccccc2)cc1Br
  1.2 | -1 | 3 | -3 | -36%[inhibitor] | -5%
2. CC(C)c1nnc(NC(=O)C2CCCN2C(=O)Nc2cccc(Cl)c2)s1 (stereo not drawn)
  1.0 | -9 | 7 | -1 | -4% | -5%
3. Cc1sc(NC(=O)c2cc(-c3ccccc3)nc3ccccc23)c(C(N)=O)c1C
  -4.4 | -17 | -1 | -14 | -34% | 1%
4. CS(=O)(=O)Oc1ccc(/C=C2\C(=N)N3N=C(CC(=O)N4CCOCC4)SC3=NC2=O)cc1Cl
  3.8 | -1 | . | 3 | ? | 11%
5. CN(CC(=O)N1CCCC1)S(=O)(=O)c1ccc2ccccc2c1
  -3.2 | -3 | -12 | -3 | -8% | 1%
6. CN(C)c1ccc(NC(=O)CSc2nc3c(c(=O)[nH]2)CCCC3)cc1
  2.4 | 8 | -12 | -17 | 14% | -24%
7. CCOCCn1c(CN(Cc2ccccc2)Cc2ccccc2)nc2c1c(=O)n(C)c(=O)n2C
  0.0 | 1 | -1 | 1 | -37%[inhibitor] | -18%
8. CN1C(=O)C(C)(C)c2cc(S(=O)(=O)NCCc3ccc(Cl)cc3)ccc21
  4.1 | -4 | 4 | 4 | -46%[inhibitor] | 3%
9. OC(COc1ccc2c(c1)OCO2)CN1CCN(c2ccc(F)cc2)CC1 (stereo not drawn)
  0.9 | -6 | -5 | -4 | -12% | 10%
10. CC(C)C(=O)Nc1cc2c3c(c1)CCC(=O)N3CCC2
  0.8 | -7 | . | 4 | -7% | -9%
11. O=C(CCC(=O)Nc1ccccc1Cl)NNC(=O)C1CCCCC1
  -4.1 | -14 | 1 | 6 | 10%[15.4 µM] | 13%
12. O=C(c1nc2ncccn2n1)N1CCc2ccccc2C1
  -2.5 | -1 | -6 | 9 | 0% | 4%
13. COc1ccnc2c1c(=O)n(Cc1ccc(Cl)cc1)c(=O)n2C
  0.9 | -14 | . | -1 | 0% | -1%
14. CCC(C)Sc1ccc(-c2nc3ccc(C)cn3c2NC2CCCCC2)cc1 (stereo not drawn)
  -2.3 | -11 | 8 | 2 | . | -1%
15. Cc1ccc(NC(=O)C(Cc2ccccc2)N2C(=O)C3C4CCC(C4)C3C2=O)cc1Cl (stereo not drawn)
  1.9 | 2 | -6 | -3 | -23% | -23%
16. CC1(C(=O)NS(=O)(=O)c2cccc(F)c2)CCN1C(=O)C/C=C/c1ccccc1 (stereo not drawn)
  -3.6 | -9 | 0 | 12 | . | .
17. COC1=C(Nc2ccccc2)C(=O)C(OC)=C(Nc2ccccc2)C1=O
  3.6 | -2 | 3 | -3 | -9% | 2%
18. COc1cc(C)c(CN2CCN(c3ncccn3)CC2)cc1C
  ? | -7 | 2 | -25 | 4%[15.4 µM] | 7%
19. Cc1cc(C)c(-c2cc(C(=O)Nc3cc(C)ccc3C)[nH]n2)c(O)c1
  -0.2 | 3 | -6 | -4 | -19% | 7%
20. CCn1cc(S(=O)(=O)CC(=O)NC2CCCCC2)c2ccccc21
  -2.0 | -22 | 3 | -3 | 30% | -12%
21. O=C(CCl)Nc1cc(SCC(O)CO)cc([N+](=O)[O-])c1 (stereo not drawn)
  -3.5 | -6 | 2 | 2 | -25% | -1%
22. COc1ccc(Oc2nc3c(C)cccn3c(=O)c2/C=C(\C#N)C(N)=O)cc1
  2.3 | -7 | 3 | 3 | 27%[15.4 µM] | -13%
23. COc1ccc2c(Cl)c(-c3nnc(SCC(N)=O)n3C)sc2c1
  -0.6 | -7 | -17 | 5 | -51%[inhibitor] | -4%
24. Cc1cc(C)nc(NC(=O)c2c(C(=O)O)noc2C)n1
  -3.0 | -3 | 4 | 5 | -8% | 14%
25. COc1ccc(S(=O)(=O)N(C)c2ccc(OCC(=O)Nc3cc(C)on3)cc2)cc1
  -0.8 | -3 | -3 | -1 | 4% | -11%
26. O=C(COC(=O)c1cccc(F)c1)Nc1ccc2c(c1)OCCO2
  0.0 | -3 | -3 | 4 | 1% | 4%
27. COCCNC(=S)N/N=C/c1ccc2c(c1)OCCO2
  -4.5 | -12 | . | 1 | -36%[inhibitor] | -1%
28. COc1ccc(S(=O)(=O)Nc2ccc3c(c2)C(=O)N([C@@H](C)CO)C[C@@H](C)[C@H](CN(C)S(=O)(=O)c2ccc(F)cc2)OCCCC[C@H](C)O3)cc1
  0.8 | . | -6 | -4 | ? | .
29. O=C(NCc1cccs1)c1cccc2c(-c3cccnc3)coc12
  9.9 | -5 | ? | ? | . | .
30. Cc1nnc2sc(SCc3ccccc3Cl)nn2c1=O
  0.9 | 4 | -3 | 13 | 11%[15.4 µM] | 11%
31. COc1cc(OC)cc(-c2nnc(NC(=O)CCS(=O)(=O)c3ccc(F)cc3)o2)c1
  2.2 | -6 | -24 | -14 | 6%[15.4 µM] | -3%
32. Cc1csc2sc(-c3ccnc(SCC(=O)NCc4ccccc4)n3)c(C)c12
  -1.2 | -4 | 8 | 13 | 27%[15.4 µM] | 17%
33. COc1ccc(C(=O)NNC(=O)CCC(=O)Nc2cc(C)on2)cc1
  -2.4 | -2 | 10 | -2 | -3% | 12%
34. N#CC1=C(N)SC(N)=C(C#N)C1c1cccc(O)c1
  -1.4 | -15 | 11 | -12 | ? | 7%
35. O=C(O)c1ccc(Cl)c(S(=O)(=O)Nc2ccc(S(=O)(=O)Nc3cccc(Cl)c3)cc2)c1
  -4.5 | -4 | -25 | -9 | -14% | -18%
36. O=C(Nc1nc2ccccc2[nH]1)c1ccc(OC(F)F)cc1
  2.4 | -6 | -8 | 1 | -29% | -9%
37. CC(=O)N1CCc2cc(Br)cc(S(=O)(=O)CCC(=O)N3CCN(c4ccccn4)CC3)c21
  3.6 | 3 | -1 | -4 | ? | 0%
38. CCCCn1c(=O)[nH]c(=O)c2c1nc(-c1ccc(-c3ccccc3)cc1)n2C
  6.0 | -2 | 6 | 22 | -12%[15.4 µM] | 10%
39. NC(=O)c1cc([N+](=O)[O-])ccc1NCc1cccc2ccccc12
  -3.5 | -36 | -7 | -19 | . | ?
40. Cc1csc(NC(CO)c2nc3ccccc3n2CCOCCO)n1 (stereo not drawn)
  -2.6 | -11 | -11 | -10 | -8% | 12%
41. COc1cc(/C=C(\C#N)c2nc3ccccc3[nH]2)c([N+](=O)[O-])cc1OCc1ccccc1
  1.0 | 11 | -21 | ? | 23% | -1%
42. CC(C)CC(NS(=O)(=O)c1ccc2c(c1)oc(=O)n2C)C(=O)NC1CCCc2ccccc21 (stereo not drawn)
  0.4 | -5 | 1 | 0 | -8% | 7%
43. O=C(Cn1cnc2ccccc2c1=O)Nc1nnc(C2CC2)s1
  2.1 | -8 | 4 | 12 | ? | -6%
44. Cc1nc(NS(=O)(=O)c2ccccc2)sc1C(=O)N/N=C/c1ccccc1
  -3.3 | -4 | . | -9 | -31%[inhibitor] | -17%
45. O=C(Oc1cccc2c(O)cccc12)c1ccco1
  12 | 20 | 5 | -4 | 7% | 0%
46. CCC12CSc3nc(Cl)ccc3N1C(=O)C(=O)N2C (stereo not drawn)
  -3.5 | -4 | -5 | -3 | 0% | 4%
47. COc1ccccc1NC(=O)C(=O)N(c1cccnc1)C(C(=O)NC(C)(C)C)c1ccccc1 (stereo not drawn)
  -0.9 | -1 | 2 | 5 | 14%[15.4 µM] | -14%
48. O=C(c1ccccc1F)N(Cc1ccccc1)Cc1ccccc1
  -1.2 | -9 | 16 | 7 | -69% | -10%
49. COc1cc(CN2CC(=O)N(c3ccc(C)c(C)c3)C2=S)cc(OC)c1OC
  4.6 | 24 | -1 | -12 | ? | -12%
50. Cc1ccc(/C(N)=N/OC(=O)C(C)c2ccc([N+](=O)[O-])cc2)cc1 (stereo not drawn)
  1.1 | 0 | -3 | -9 | -4% | -5%
51. Cc1ccc(C(=O)Nc2ccon2)cc1S(=O)(=O)N1CCCCCC1
  -1.1 | 1 | 0 | 0 | 17% | 7%
52. COc1ccc(CCNC(=O)c2cc(C3CC3)nc3c2cnn3C(C)C)cc1OC
  -2.3 | -3 | . | 4 | ? | ?
53. CNc1snc(C)c1C(=O)OCC(=O)c1cc(F)ccc1OC
  9.7 | 0 | 11 | 1 | 13% | -12%
54. CCn1c(C)cc(C(=O)COC(=O)CNC(=O)c2ccco2)c1C
  -2.7 | -10 | -8 | -5 | -12% | .
55. CC1(C)c2ccccc2-c2nc3ccccc3cc2C1N1CCOCC1 (stereo not drawn)
  -0.3 | 3 | -10 | 4 | -43%[inhibitor] | -14%
56. Cc1cccc(C)c1NC(=O)NC1(C(=O)NCC2CCCO2)CCCCC1 (stereo not drawn)
  0.4 | 2 | 0 | 12 | 7% | 1%
57. COc1ccc(OC)c(CN2CCN(c3ccccc3OC)CC2)c1
  -2.4 | -20 | -15 | -11 | -33% | 13%
58. O=c1[nH]c2cc3c(cc2cc1CN(Cc1ccc2c(c1)OCO2)Cc1nnnn1CC1CCCO1)OCO3 (stereo not drawn)
  -1.3 | -17 | -17 | -13 | 6% | -3%
59. Cc1ccc(C)c(C(=O)C(C)OC(=O)c2cccn2C)c1 (stereo not drawn)
  -1.4 | 10 | -9 | -20 | 2% | -10%
60. Cc1ccc(C([O-])=C(C(=S)NCc2ccccc2)[n+]2cccc(CO)c2)cc1[N+](=O)[O-]
  -2.3 | -9 | 19 | 2 | 23% | 0%

The list goes on:
Results follow in this order: D2 agonist | D2 PAM | CtBP-E1A blk | Six1-Eya2 blk | gsp ag | gsp antag
61. CCOC(=O)C1=CCN(S(=O)(=O)c2ccc(C)cc2)C1c1cccc2ccccc12 (stereo not drawn)
  -3.6 | -4 | -1 | -6 | . | .
62. CCn1c2ccccc2c2cc(NC(=O)COC(=O)c3ccc(NC(=O)CC#N)cc3)ccc21
  1.8 | -7 | 2 | ? | 18% | 12%
63. O=C(Nc1nc(-c2ccccc2)cs1)c1cccc([N+](=O)[O-])c1C(=O)O
  -5.8 | -5 | 1 | 4 | -39%[inhibitor] | 3%
64. CCC(=O)c1cc2c(C)cc(=O)oc2c(C)c1O
  0.3 | -2 | 1 | 3 | 5% | 8%
65. Cc1ccc(/C=N/NC(=O)c2cccs2)o1
  -2.7 | -2 | 1 | 16 | -33%[inhibitor] | 9%

A portion of the results above:
Results follow in this order: D2 agonist | D2 PAM | CtBP-E1A blk | Six1-Eya2 blk | gsp ag | gsp antag
61. CCOC(=O)C1=CCN(S(=O)(=O)c2ccc(C)cc2)C1c1cccc2ccccc12 (stereo not drawn)
  -3.6 | -4 | -1 | -6 | . | .
62. CCn1c2ccccc2c2cc(NC(=O)COC(=O)c3ccc(NC(=O)CC#N)cc3)ccc21
  1.8 | -7 | 2 | ? | 18% | 12%
